Bioassay records as filed in PubChem.
D2 PAM: potentiates the human D2 dopamine receptor allosterically | P14416 | actives 0.23% (n = 360,000) | DiscoveRx D2 beta-arrestin cells, luminescence, 90 min; 100% = 57 uM dopamine signal | AID 624464 | potentiation, % (concentration not given with the values); active = potentiation of 50% or more; inconclusive = 30% to 50%; inactive = 30% or less;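 note: compound concentration not given in the record; tested on top of an EC20 dose of dopamine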
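PathHunter beta-arrestin assay in DiscoveRx D2 cells. Compounds were added with an EC20 of dopamine (50 nM final) for 90 min at 37 deg C. Luminescence was read 1 h after detection reagent, with 57 uM dopamine as the EC100 control.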
CtBP-E1A blk: CtBP/E1A binding inhibition | AID 651724 | AlphaScreen GST-E1A/His-CtBP binding, 1536-well; hits give low values; control for the full effect not named in the record | actives 0.49% (n = 340,000) | activity change, % (test concentration not listed); in the data active means activity change below about -65%; inconclusive means about -30% to -65%; inactive means above about -30%; note: % is set by controls: 0 for no effect and ±100 for the full control effect; compound concentration not given in the record
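In 5 uL wells, 23 nL compound meets equimolar GST-E1A and His-CtBP (5X stock 125 nM each) for 2 h, 37 °C. Beads (5X, 50 ug/mL) then 1 h, 37 °C, dark.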
TRPML1 blocker: blocks the human TRPML1 channel. actives 0.02% (n = 390,000). AID 624415. TRPML1-inducible cells, Ca2+ dye fluorescence, FDSS; hits give low values; inhibition of EC80 agonist-evoked calcium signal. activity change, negative = inhibition, % (no concentration beside the values); in the data active means activity change below about -50%; inconclusive means about -30% to -50%; inactive means above about -30%;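 note: stimulus is agonist 54-4 at its EC80 concentration; % is set by controls: 0 for no effect and ±100 for the full control effect; compound concentration not given in the record; the text of the record puts the active cut at -80%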
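Calcium fluorescence in TRPML1-DL cells induced overnight with Tet: a 110 s read after compound pin addition, then a 110 s antagonist read after challenge with 54-4 at 4 uM final (EC80).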
Six1-Eya2 blk: inhibitors of human Six1/Eya2 interaction | Q15475+O00167 | AlphaScreen GST-Six1/His-Eya2 binding, biochemical; hits give low values; control for the full effect not named in the record | activity change, % (concentration not given with the values) | actives 0.56% (n = 360,000) | AID 651725; in the data active = activity change below about -65%; inconclusive = about -30% to -65%; inactive = above about -30%; note: % is set by controls: 0 for no effect and ±100 for the full control effect
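AlphaScreen with GST-Six1 and His-Eya2 (5X mix: 250 nM and 500 nM), glutathione donor and nickel acceptor beads; buffer 50 mM Tris pH 8.0, 300 mM NaCl, 1 mM TCEP; 1 h at 37 C in the dark.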
TRPML1 ag: human mucolipin-1 channel agonism; Q9GZU1; TRPML1-expressing cells, Ca2+ dye fluorescence, FDSS; host cell line not named in the record; reference of the full effect not given here; activation, % (test concentration not listed); actives 0.12% (n = 410,000); in the data active = activation above about 50%; inconclusive = about 30% to 50%; inactive = below about 30%; note: 0% is about no effect; the text of the record puts the active cut at 80%
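Tet-induced TRPML1-DL cells, 1,500 per well, cultured overnight, were loaded with a no-wash Ca2+ dye for 45–90 min. Calcium fluorescence was recorded on the FDSS for 110 s after compound addition, before the EC80 agonist (4 uM 54-4) was added.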
TRPV1 PAM: human TRPV1 potentiation; AID 540277; potentiation, % at 8.33 µM; actives 0.02% (n = 320,000); TRPV1-expressing cells, Fluo-8 calcium influx, capsaicin EC20 potentiation; host cell line not named in the record; control for the full effect not named in the record; active means potentiation above 80%; inconclusive means 30% to 80%; inactive means below 30%; note: 0% is about no effect
Target sequence (Q8NER1 whole entry, looked up): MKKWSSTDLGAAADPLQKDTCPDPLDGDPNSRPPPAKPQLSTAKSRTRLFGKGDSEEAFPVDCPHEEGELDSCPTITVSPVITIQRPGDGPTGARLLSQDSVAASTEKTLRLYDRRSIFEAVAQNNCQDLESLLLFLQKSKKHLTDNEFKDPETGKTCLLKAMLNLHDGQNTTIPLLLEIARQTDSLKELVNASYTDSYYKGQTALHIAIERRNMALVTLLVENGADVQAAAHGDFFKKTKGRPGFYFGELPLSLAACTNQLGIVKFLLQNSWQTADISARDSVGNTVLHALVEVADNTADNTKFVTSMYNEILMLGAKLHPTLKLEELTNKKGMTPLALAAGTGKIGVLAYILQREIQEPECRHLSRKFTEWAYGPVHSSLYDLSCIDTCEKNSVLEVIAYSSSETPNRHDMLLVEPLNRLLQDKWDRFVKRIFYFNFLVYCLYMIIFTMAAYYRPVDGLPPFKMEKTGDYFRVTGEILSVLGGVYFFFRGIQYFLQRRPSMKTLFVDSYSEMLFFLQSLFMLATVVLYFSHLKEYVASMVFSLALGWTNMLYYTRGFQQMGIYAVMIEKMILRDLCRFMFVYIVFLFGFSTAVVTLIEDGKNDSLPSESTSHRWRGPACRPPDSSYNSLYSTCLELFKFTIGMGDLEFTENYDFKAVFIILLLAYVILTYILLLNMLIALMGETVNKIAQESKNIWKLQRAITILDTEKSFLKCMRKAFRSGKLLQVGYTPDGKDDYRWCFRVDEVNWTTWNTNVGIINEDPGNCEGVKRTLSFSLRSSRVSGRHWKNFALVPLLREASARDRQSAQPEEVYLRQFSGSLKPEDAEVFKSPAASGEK
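Fluo-8 calcium influx in TRPV1-expressing cells, kinetic read (ex 480/em 520 nm). Compound added and read 3 min for agonist activity, followed by capsaicin at EC20 final and 2 min further read for enhancement.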
* marks the source's active call; other numbers are inactive results; ? = inconclusive; nt = not tested or not shown; & = joins results of further samples.

SMILES	D2 PAM	CtBP-E1A blk	TRPML1 blocker	Six1-Eya2 blk	TRPML1 ag	TRPV1 PAM
Cc1cc(C)c(C#N)c(SCC(=O)Nc2c(C)n(C)n(-c3ccccc3)c2=O)n1	-2.9	9.0	-0.6	6.0	-0.3	nt
Cn1nc(C(F)(F)F)c(C(=O)Nc2ccc(F)cc2F)c1Sc1ccc(C(F)(F)F)cc1	-17.1	24.5	12.9	11.0	2.6	nt
COc1ccc(NC(=O)/C(=C\c2cccnc2)NC(=O)c2cccs2)cc1	9.6	-5.4	8.3	4.5	0.7	-6.3
Cc1cccc(OCCCC(=O)Nc2nc3ccccc3[nH]2)c1	-4.6	-1.2	3.6	6.9	0.1	27.2
COc1ccc(N=C(N(C)C)P(=O)(N(C)C)N(C)C)cc1	-0.1&5.9	1.5&-0.8	-11.0&-0.8	-0.6&2.5	-0.3&-0.3	4.9
CCn1nc(C(=O)OCC(=O)N(CCC#N)c2ccccc2)c2ccccc2c1=O	-19.0	-4.2	-16.4	1.5	2.0	3.0
CCOCCOC(=O)Cn1cnc2scc(-c3ccc(C)cc3)c2c1=O	-2.4	12.3	23.2	-1.5	1.8	2.7
CN(C)c1ccc(/C=C/c2cccc[n+]2[O-])cc1	-6.6	5.1	-9.1	0.0	1.3	-5.6
CC1=C(C(=O)OCc2ccccc2)C(c2ccc(Cl)cc2)NC(=O)N1C (centres undefined)	3.6	-3.1	12.0	-2.9	2.0	-13.0
CN(C)CC/C=C1/c2cc(F)ccc2CSc2ccc(F)cc21	-43.0	-1.3	21.2	-9.2	-0.1	5.6
c1ccc(CNc2ncnc3ccccc23)cc1	-4.4&-7.7	12.9&5.6	1.9&-8.0	5.4&9.9	0.2&-0.4	-10.3&3.4
COCCN1C(=O)N(c2cccc(OC)c2)C(=O)C1CC(=O)Nc1ccc(OC)cc1 (centres undefined)	-0.2	-0.5	4.1	-8.1	-1.3	6.0
O=C(Nc1nccs1)c1ccc(NC(=O)C2CC=CCC2C(=O)O)cc1 (centres undefined)	-0.4	-9.1	11.6	?	0.5	3.7
CCNC(=O)COC(=O)C1CCN(S(=O)(=O)c2ccc3c(c2)OCCO3)CC1	3.5	4.3	-0.5	8.5	-0.9	-7.3
CCOC(=O)C(C)(C)Sc1ncnc2nc[nH]c12	-3.5	-2.1	-1.9	3.0	1.2	24.6
COCCN(C(=O)COC(=O)COc1ccc2c(c1)CCC2)c1c(N)n(Cc2ccccc2)c(=O)[nH]c1=O	18.7	-0.7	1.4	0.9	-0.2	-1.5
CCN(C(=O)CCN1C(=O)c2ccccc2S1(=O)=O)c1ccccc1	2.4	6.8	23.0	2.4	1.6	-7.0
CCOc1ccccc1N1CCN(CC(O)COCc2cccs2)CC1 (centres undefined)	-19.2	2.0	-5.4	2.0	0.1	6.4
Cc1cccc(NC(=O)c2nc[nH]c2C(=O)NC2CCN(C(=O)OC(C)(C)C)CC2)c1	-4.5	3.7	6.2	9.2	-0.1	-10.7
O=S(=O)(c1cccc(Cl)c1)N1CN(CC2CCCO2)c2nc3ccccc3nc21 (centres undefined)	-7.0	-2.4	10.6	-11.4	1.8	-6.6
CCOc1ccc2c(c1)c1nnc(SCC(=O)NC3CC3)nc1n2C	-3.9	3.8	-3.6	-10.1	-0.6	5.1
Cc1cc(-c2ccc(C(C)C)c(S(=O)(=O)Nc3ccccn3)c2)on1	-2.7	1.6	2.5	0.1	0.6	10.7
COC(=O)C(NC(=O)C(CC(C)C)NC(=O)C1CCC(C)CC1)C(C)C (centres undefined)	-4.1	0.5	-18.5	10.5	0.2	-24.3
CS(=O)(=O)Nc1ccccc1C(=O)NC1CC2CCC1C2 (centres undefined)	-5.8	0.5	-1.6	4.1	-0.5	-6.1
COc1ccc(-c2nc3ccccc3n2OCC(=O)O)cc1	-0.2	1.7	35.2	1.7	3.3	8.2
COc1ccc(C2NC(=O)NC(C)=C2C(C)=O)cc1 (centres undefined)	2.1	4.2	5.1	-8.9	0.7	4.5
CCOC(=O)N1CCN(C(=O)CSc2nc3c([nH]c4ccccc43)c(=O)n2CCOC)CC1	-10.3	5.8	-4.2	-4.4	-0.4	-5.4
CC1=[N+]([O-])C(C)(C)N(O)C1(C)C	1.6	6.3	-3.6	2.9	0.7	3.7
COc1ccccc1NC(=O)Cn1cc(C(=O)c2ccco2)c2ccccc21	1.6	-24.6	1.6	-9.1	1.9	?
COc1ccc(N2CCN(C(=O)Cn3nnc(-c4ccc(OC)c(OC)c4)n3)CC2)cc1	-12.1	0.0	-7.5	1.3	3.0	12.5
Cc1ccc(-n2ncc(C(=O)Nc3cc(Cl)ccc3Cl)c2C2CCNCC2)cc1	-12.9	-23.5	-0.5	?	0.3	-7.1
CCN1CCN(c2ncnc3sc(C)c(-c4ccccc4)c23)CC1	12.1	-5.2	-0.2	1.5	-0.4	-3.2
Cn1ncc(Br)c1NC(=O)Nc1ccc(OC(F)(F)F)cc1	-8.5	8.8	0.4	3.3	-0.3	-22.1
C=CCSc1nc(Cc2ccc(Cl)cc2)nc2ccccc12	-0.8	-1.3	11.6	5.5	0.5	6.2
CC(=O)OC1CC2(C)C(=O)CCC2C2CCc3cc(O)ccc3C12 (centres undefined)	-12.5	4.9	3.8	3.0	-0.2	-2.5
CCn1cc(C(=O)N2CCCC(C(=O)c3cccc(C(F)(F)F)c3)C2)cn1 (centres undefined)	-8.1	0.5	-3.8	-2.1	-0.4	nt
Cc1nn2c(N3CCN(C)CC3)cc(C(C)(C)C)nc2c1-c1ccccc1	-11.6	-5.6	4.2	3.8	-0.2	-8.0
Cc1cccn2cc(-c3ccc4c(c3)NC(=O)CO4)nc12	-3.1	0.0	5.6	0.6	0.7	nt
COc1ccc(S(=O)(=O)n2oc(=O)cc2-c2ccccc2)cc1	-3.0	-72.8*	-0.1	-90.2*	-0.6	-0.8
NS(=O)(=O)c1cc2c(cc1Cl)NC=NS2(=O)=O	-5.0	4.2	0.4	-3.3	-1.0	2.0
COc1ccc(CN(C(=O)c2ccc3c(c2)OCCO3)C(C(=O)NC2CCCCC2)c2ccc3ncccc3c2)cc1 (centres undefined)	-28.0	9.1	-2.6	-4.0	1.3	-5.1
CCCCC[C@H]1CN(C2CCCCC2)C(=O)[C@@H]1CC(=O)NCc1ccc(OC)cc1	-6.0	2.0	50.3	-3.1	-0.9&-0.4	-4.9
COc1cc2[nH]c(=O)n(CCCCCC(=O)NCCc3c[nH]c4ccccc34)c(=O)c2cc1OC	-6.4	-24.5	-5.1	-22.9	0.7	8.8
Cc1cc(OC(=O)c2c(C)cc(O)cc2O)cc(O)c1C(=O)O	-16.3	0.4	nt	2.5	nt	3.9
O=C(C/C=N\OCc1ccc(Cl)cc1Cl)Nc1ccccc1	-3.3	-8.1	0.5	3.6	0.6	-9.7
CC(C)(C)c1ccc(NC(=O)N2CCCN(c3ccc([N+](=O)[O-])cn3)CC2)cc1	-7.3	-7.5	-5.4	-7.6	0.3	-16.4
c1ccc(COc2ccc(Nc3ncnc4nc[nH]c34)cc2)cc1	-4.3	-7.5	2.5	-11.7	-0.5	-5.8
O=C(Nc1nccs1)c1ccc2sc([C@H]3C[C@H](O)[C@@H](CO)O3)nc2c1	-5.1	-16.4	nt	-23.4	0.0	nt
COc1ccc(N(C(=O)c2ccco2)C(C(=O)NC2CCCC2)c2ccc(C)cc2)c(OC)c1 (centres undefined)	-1.9	20.3	-11.5	0.0	-1.5	-6.7
Clc1cccc(C2Nc3cccc4cccc(c34)N2)c1Cl	-0.8	-12.1	2.9	-9.4	0.7	6.2

Reformatted as labelled records: 4 of the compounds above.
COc1cc2[nH]c(=O)n(CCCCCC(=O)NCCc3c[nH]c4ccccc34)c(=O)c2cc1OC
  D2 PAM = -6.4 | CtBP-E1A blk = -24.5 | TRPML1 blocker = -5.1 | Six1-Eya2 blk = -22.9 | TRPML1 ag = 0.7 | TRPV1 PAM = 8.8

Cc1cc(OC(=O)c2c(C)cc(O)cc2O)cc(O)c1C(=O)O
  D2 PAM = -16.3 | CtBP-E1A blk = 0.4 | TRPML1 blocker = nt | Six1-Eya2 blk = 2.5 | TRPML1 ag = nt | TRPV1 PAM = 3.9

O=C(C/C=N\OCc1ccc(Cl)cc1Cl)Nc1ccccc1
  D2 PAM = -3.3 | CtBP-E1A blk = -8.1 | TRPML1 blocker = 0.5 | Six1-Eya2 blk = 3.6 | TRPML1 ag = 0.6 | TRPV1 PAM = -9.7

CC(C)(C)c1ccc(NC(=O)N2CCCN(c3ccc([N+](=O)[O-])cn3)CC2)cc1
  D2 PAM = -7.3 | CtBP-E1A blk = -7.5 | TRPML1 blocker = -5.4 | Six1-Eya2 blk = -7.6 | TRPML1 ag = 0.3 | TRPV1 PAM = -16.4

Additional results follow:
SMILES	D2 PAM	CtBP-E1A blk	TRPML1 blocker	Six1-Eya2 blk	TRPML1 ag	TRPV1 PAM
CS(=O)(=O)c1ccc(-n2nnc3ccccc32)c([N+](=O)[O-])c1	5.0	-0.9	-4.2	6.0	-0.1	17.2
CC1CCCN(C(=S)NCCc2ccccc2)C1 (centres undefined)	-24.4	-0.9	-2.9	11.5	-0.5	-17.2
Cc1cc(OC(=O)c2ccc(S(=O)(=O)N3CCCCC3)cc2)c([N+](=O)[O-])c(=O)[nH]1	-7.7	1.1	-12.2	9.4	-0.4	5.2
COc1ccc(CC2c3cc(OC)c(OC)cc3CC[N+]2(C)CCC(=O)OCCCCCOC(=O)CC[N+]2(C)CCc3cc(OC)c(OC)cc3C2Cc2ccc(OC)c(OC)c2)cc1OC (centres undefined)	-12.4	-0.7	-5.6	4.3	11.0	-12.1
CC1Oc2ccccc2N(CC(=O)NCCCN2CCOCC2)C1=O (centres undefined)	-4.1	4.0	-12.1	6.1	0.3	0.6
Cc1ccccc1CN1C2=NCCN2c2ccccc21	-4.1	-2.0	15.1	3.9	3.0	3.7
O=C(NCc1ccccc1Cl)c1cccc(NC(=O)c2ccccc2)c1	-4.6	-0.9	-1.6	1.7	-0.4	12.5
CC(=O)C(=Cc1cn(-c2ccccc2)nc1-c1ccccc1)C(C)=O	-1.7	11.3	0.0	4.3	0.5	-17.1
COc1ccc2c(c1)O/C(=C\c1ccco1)C2=O	-3.3	3.0	11.6	10.1	1.3	?

A second format for part of the listing above:
COc1ccc(CC2c3cc(OC)c(OC)cc3CC[N+]2(C)CCC(=O)OCCCCCOC(=O)CC[N+]2(C)CCc3cc(OC)c(OC)cc3C2Cc2ccc(OC)c(OC)c2)cc1OC (centres undefined)
  D2 PAM: -12.4
  CtBP-E1A blk: -0.7
  TRPML1 blocker: -5.6
  Six1-Eya2 blk: 4.3
  TRPML1 ag: 11.0
  TRPV1 PAM: -12.1
CC1Oc2ccccc2N(CC(=O)NCCCN2CCOCC2)C1=O (centres undefined)
  D2 PAM: -4.1
  CtBP-E1A blk: 4.0
  TRPML1 blocker: -12.1
  Six1-Eya2 blk: 6.1
  TRPML1 ag: 0.3
  TRPV1 PAM: 0.6
Cc1ccccc1CN1C2=NCCN2c2ccccc21
  D2 PAM: -4.1
  CtBP-E1A blk: -2.0
  TRPML1 blocker: 15.1
  Six1-Eya2 blk: 3.9
  TRPML1 ag: 3.0
  TRPV1 PAM: 3.7
O=C(NCc1ccccc1Cl)c1cccc(NC(=O)c2ccccc2)c1
  D2 PAM: -4.6
  CtBP-E1A blk: -0.9
  TRPML1 blocker: -1.6
  Six1-Eya2 blk: 1.7
  TRPML1 ag: -0.4
  TRPV1 PAM: 12.5
